Source: PubChem BioAssay
E coli growth = inhibitors of Escherichia coli growth | OD600, 23 h; stronger effect = lower value | OD600 absorbance (test concentration not listed) | 0.21% of 330,000 active;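 active means OD600 absorbance below the run mean of sample wells minus 3.6 SD, in any replicate, cut at about 0.56 in these data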;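 further: stock transfer was 300 nL into about 60 µL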
Ecoli rRNA inh = selective bacterial rRNA inhibition in E. coli. GFP signal change (wild-type ribosome), % (no concentration beside the values). 1.6% of 350,000 active. E. coli WT GFP vs humanized-ribosome RFP mutants, fluorescence, 24 h; stronger effect = lower value; DMSO median 0, no signal -100;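 active means significant combined selectivity score with lowered wild-type GFP, culture density cut under 30%, mutant RFP and density less affected; inactive means any of these conditions unmet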; further: one replicate is shown; some compounds called inactive have numbers as strong as hits
ALR H2O2 inh = inhibitors of human sulfhydryl oxidase ALR | purified ALR, DTT oxidation, H2O2 HRP-luminol luminescence | inhibition, % (no concentration beside the values) | 3.8% of 290,000 active | P55789 | AID 485317;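 active means mean and each replicate at 75% or more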;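 further: stock transfer was 7.5 nL into about 7.5 µL; 0% = neutral wells and 100% = wells with inactivated enzyme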
Target sequence (P55789 whole entry, looked up): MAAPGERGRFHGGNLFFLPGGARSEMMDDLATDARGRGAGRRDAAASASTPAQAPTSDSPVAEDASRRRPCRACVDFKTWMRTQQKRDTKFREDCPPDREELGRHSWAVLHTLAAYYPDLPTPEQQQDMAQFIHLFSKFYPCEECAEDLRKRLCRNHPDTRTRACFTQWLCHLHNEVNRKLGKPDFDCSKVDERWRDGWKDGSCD
UCH37 inh = blocks the human deubiquitinase UCH37 | 0.33% of 330,000 active | inhibition, % (test concentration not listed) | purified proteasome/UCH37, Ub-AMC cleavage fluorescence | AID 588478 | Q9Y5K5;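 active means mean of two replicates above 20%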;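 further: 0% = compound-free wells with enzyme and 100% = wells lacking proteasome; stock transfer was 100 nL into about 20 µL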
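Material: human UCH37 enzyme supplied as purified proteasome complex / Amount: 0.15 nM proteasome as dispensed / Buffer or medium: pH 7.4 Tris-HCl (50 mM) with ovalbumin, ATP-MgCl2, DTT / Times: preincubation 30 min, reaction 25 min, room temperature / Technique: AMC fluorescence from Ub-AMC cleavage, excitation 355 nm, emission 460 nm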
Beta2AR agonist = human beta-2 adrenergic receptor agonism by FAP; P07550; Am2.2-beta2AR cells, FAP receptor internalization, flow cytometry; reference of the scale not given here; response, % (test concentration not listed); 0.43% of 340,000 active; AID 504454;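 active means response above a set limit, near 3 SD of response in nonfluorescent compounds, cut at about 42% in these data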;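 further: stock transfer was 100 nL into about 11 µL; a reference agonist was the positive control; negative values mostly stem from fluorescent compounds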
Target sequence (P07550 whole entry, looked up): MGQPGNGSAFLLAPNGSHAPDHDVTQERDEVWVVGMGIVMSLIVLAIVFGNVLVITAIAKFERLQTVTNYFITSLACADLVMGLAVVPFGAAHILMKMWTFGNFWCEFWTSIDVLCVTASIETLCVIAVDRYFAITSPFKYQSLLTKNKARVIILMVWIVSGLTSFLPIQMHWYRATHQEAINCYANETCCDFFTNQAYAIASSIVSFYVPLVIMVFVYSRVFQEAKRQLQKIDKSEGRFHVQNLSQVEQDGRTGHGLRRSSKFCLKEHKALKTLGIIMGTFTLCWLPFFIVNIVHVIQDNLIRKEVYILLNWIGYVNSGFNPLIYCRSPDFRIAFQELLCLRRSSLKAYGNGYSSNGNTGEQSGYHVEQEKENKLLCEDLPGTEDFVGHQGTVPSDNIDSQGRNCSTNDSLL
HNF4A DNA FP = change in binding of human HNF4 alpha to DNA; HNF4a-FITC DNA binding, fluorescence polarization, 1 h; activity change, % at 10 µM; 0.3% of 360,000 active; AID 1224865; P41235; in the data active means activity change above about 30%, passing the limit was not always enough;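 further: controls were the assay level and a saturating level of protein; the project sought stronger binding though the title names inhibitors; some compounds called inactive have numbers as strong as hits; positive values seem to mean higher polarization but the record does not say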
FGF22 binding = shifts melting point of recombinant human FGF22. Q9HCT0. recombinant FGF22 thermal shift, SYPRO orange fluorescence; percent of sucrose octasulfate shift, DMSO zero. calls only at 9.99 µM. 1.5% of 340,000 active. AID 651658;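 active means melting point raised past a set limit in the mean and every replicate; three in four hits are not shown here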
Target sequence (Q9HCT0 whole entry, looked up): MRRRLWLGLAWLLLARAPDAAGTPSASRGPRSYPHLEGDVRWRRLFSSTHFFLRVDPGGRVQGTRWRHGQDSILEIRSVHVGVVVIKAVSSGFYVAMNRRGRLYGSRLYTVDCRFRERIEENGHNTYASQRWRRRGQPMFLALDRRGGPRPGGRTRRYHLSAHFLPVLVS
Ecoli rRNA inh OD600 = further read-out of Ecoli rRNA inh, marked with its call; OD600 change, %; measured here: OD600 growth;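 optical density of the mix in the first replicate; 0 = DMSO median and -100 = no signal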
Ecoli rRNA inh RFP = further read-out of Ecoli rRNA inh, marked with its call; RFP signal change, %; measured here: RFP humanized mutant strains;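 first replicate; 0 = DMSO median and -100 = no signal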
An asterisk follows results filed as active; i = inactive; . = no result given; & = joins results of further samples. These rows are one share of the data, so the mix of outcomes need not match the whole.

SMILES	E coli growth	Ecoli rRNA inh	Ecoli rRNA inh OD600	Ecoli rRNA inh RFP	ALR H2O2 inh	UCH37 inh	Beta2AR agonist	HNF4A DNA FP	FGF22 binding
CC(C)N(CCNC(=O)C1CCCN(c2ncnc3c2nc2n3CCCCC2)C1)Cc1ccccc1 (stereo not drawn)	0.67	2	-2	1.5	-3	4.0	-10	-2.4	i
COc1ccc(C(C(=O)NCC2CCCO2)N(C(=O)CNC(=O)c2cccs2)c2ccccc2C)cc1OC (stereo not drawn)	0.67	10	10	2.8	-7	2.0	-14	1.7	.
CCOc1cc(S(=O)(=O)Nc2ccc(CC)cc2)ccc1Cl	0.71	.	.	.	-2	2.2	-18	-1.0	.
COc1ccc(C2OCC3(CO2)SC(N)=NC3=O)cc1 (stereo not drawn)	0.68	9	8	-0.9	.	5.4	5	-1.4	i
CC(=O)C1=C(O)CC(C)(C)CC1=NCc1nc2ccccc2[nH]1	0.67	5	-1	-1.4	.	-0.4	0	3.9	i
CC(C)Nc1ccc(C(CC(N)=O)NC(=O)Cc2ccc(Cl)cc2)cc1[N+](=O)[O-] (stereo not drawn)	0.67	2	14	3.0	2	0.1	-6	-0.6	i
O=C(CSc1nc(-c2ccc(F)cc2)cs1)NCCN1C(=O)CSC1=O	0.7	0	8	0.5	12	2.4	-4	2.8	i
CCOC(=O)Cc1csc(NC(=O)CN(C)S(=O)(=O)c2ccc3c(c2)CCC(=O)N3)n1	0.78	1	8	-1.0	-5	6.2	4	-1.1	i
O=C(CN1CCOCC1)Nc1ccc(C2CCCCC2)cc1	0.71	.	.	.	3	1.0	-1	-0.4	.
CCN(CC(=O)NC(C)(C)C)Cc1nc2c(Br)cc(Br)cc2c(=O)[nH]1	0.66	-29*	-18*	0.8*	.	4.9	-8	2.1	i
CC(=O)Nc1ccc(NC(=O)c2c(C)nn(Cc3ccccc3Cl)c2C)cc1	0.66	3	5	-1.3	1	1.4	1	0.5	i
c1ccc(C2=Nn3c(nnc3-c3ccccn3)SC2)cc1	0.72	.	.	.	27	5.5	-13	3.5	.
O=C(Nc1cc(=O)c2ccccc2o1)N1CCOCC1	0.62	.	.	.	2	-5.0	1	0.9	.
O=C(Nc1cccc2c1CCCC2)c1ccccc1Br	0.64	6	6	4.5	-5	1.0	-9	1.6	i
O=C(CSc1ncnc2ccccc12)Nc1ccc2c(c1)OCCO2	0.67	6	19	3.3	95*	8.1	-14	1.5	.
C/C(=N\NC(=O)c1sccc1C)c1cccnc1	.	4	21	-0.5	-4	.	-12	1.5	i
O=C(CCC(=O)OCC(=O)c1ccccc1)NC1CCCCC1	0.72	.	.	.	0	1.0	-6	3.4	.
CC1(C)C2CCC1(C)C(Nc1ccccc1)C2 (stereo not drawn)	0.74	8	2	-0.3	.	3.8	-1	-1.2	i
COc1cccc(Nc2c(Nc3cccc(OC)c3)c(=O)c2=O)c1	0.64	12	18	0.3	-1	-23	27	-5.5	i
Cc1ccc(NC(=O)C2CCN(S(=O)(=O)c3ccc4c(c3)NC(=O)C(C)S4)CC2)cc1Cl (stereo not drawn)	0.72	7	-14	19	-10	3.1	0	5.4	i
Cc1ccc(/C=C2/NC(=O)N(Cc3ccccc3)C2=O)o1	0.73	.	.	.	.	-1.5	-41	17	.
COc1cccc(CC(=O)Nc2cc(C(F)(F)F)ccc2N2CCCC2)c1	0.66	-1	7	1.3	-3	-2.9	4	3.0	i
COC(=O)c1cc(NC(=O)CN2CCOCC2)cc(C(=O)OC)c1	0.69	.	.	.	1	1.1	2	1.9	.
CCc1cccc(CC)c1NC(=O)COC(=O)CC1c2ccccc2CCN1S(=O)(=O)c1ccc(F)cc1 (stereo not drawn)	.	12	2	17	-7	.	5	-1.2	i
Cc1ccc2nc3c(cc(C(=O)NC4CCCC4)c(=N)n3C3CCCCC3)c(=O)n2c1	0.65	0	-10	0.4	-4	i	-8	1.3	i
CCOC(=O)[C@@H]1[C@H]2COc3ccc(Br)cc3[C@H]2N2C(=O)N(c3ccc(C)cc3)C(=O)[C@@]12C	.	9	15	0.5	-5	0.2	-4	5.4	i
Cc1c(NC(=O)C(C)OC(=O)c2cccnc2)c(=O)n(-c2ccccc2)n1C (stereo not drawn)	0.72	8	5	1.2	-6	4.4	-7	1.7	i
O=S1(=O)CC(N2CCCCC2)CN1CCc1ccccc1 (stereo not drawn)	.	7	2	2.9	.	.	.	-1.5	i
COC(=O)C1=C(C(=O)OC)[C@@H]2N(Cc3ccccc3)c3ccccc3[C@@]23C[C@@H](C(=O)OC)N(C(=O)NC2CCCCC2)C3=N1	.	2	-8	-8.0	1	-2.6	-3	7.7	i
Cc1cccc(NC(=O)NC2(C)CCS(=O)(=O)C2)c1 (stereo not drawn)	0.66	3	8	-2.6	-19	1.2	14	-1.1	i
CC1CCc2onc(C(=O)O)c2C1 (stereo not drawn)	0.69	7	8	1.4	.	1.6	1	-0.1	i
Cc1ccc(CCCOC(=O)C[N+]2(C)CCCC2)cc1	0.67	13	6	-5.3	-1	6.8	-3	-0.8	i
Cc1ccc(C)c(NC(=O)COC(=O)c2c(-c3ccccc3)noc2C)c1	.	-2	15	-4.7	.	.	.	1.6	i
CCOc1ccc(NC(=O)c2cccc3ccccc23)cc1	0.69	11	8	-2.7	3	4.4	-3	4.0	i
CCOc1ccc(C(=O)NN2C(=S)NC(C)(C)C=C2C)cc1	0.64	14	6	1.6	0	-0.2	-5	0.9	i
CCc1sc(C(=O)Nc2ccc3c(c2)OCO3)cc1C	0.62	-16	-25	-6.7	26	3.4	22	-10	i
CCN(C[C@H]1N[C@@](CC)(C(=O)OC)[C@H]2C(=O)N(C)C(=O)[C@@H]12)C(=O)c1ccccc1	0.69	5	1	-7.0	.	2.9	-4	1.4	i
CCC(=O)Nc1nc(C)c(C(=O)Nc2cccc(Cl)c2)s1	0.6	-29	-33	-3.8	1	4.1	-3	-3.1	i
O=S(=O)(c1ccc(F)cc1)N1CCCN(c2nccc(C(F)(F)F)n2)CC1	0.66	.	.	.	-4	3.7	-9	-0.2	i
COc1ccccc1-n1c(SCC(=O)c2ccc(O)cc2O)nc2cc([N+](=O)[O-])ccc21	0.7	-7	-3	2.4	-5	4.9	0	-168	i
COc1ccc(NC(=O)COC(=O)CC2CCCCC2)cc1	0.71	-6	-10	2.4	.	-1.1	12	1.3	i
Cc1ccc(C)c(N2CCN(C(=O)CCCCn3c(=O)[nH]c4ccccc4c3=O)CC2)c1	0.67	.	.	.	-9	0.5	-15	0.8	.
O=C(/C=C/c1ccc(O)c(O)c1)c1ccc(S(=O)(=O)N2CCCCCC2)cc1	0.7	-12	-3	5.9	7	2.6	19	-1.1	i
COc1ccc(NC(=O)COc2ccc3c(c2)CCC3)cc1S(N)(=O)=O	0.64	-16	-3	1.4	-1	1.8	-7	3.2	i
CC(C)[C@H](NC(N)=O)C(=O)NNC(=O)COc1cccc(C(F)(F)F)c1	0.67	9	-9	-1.4	.	1.2	-4	-1.9	i
Cc1ccc(NC(=O)c2c(-c3ccccc3)noc2C)nc1	0.65	.	.	.	-5	-2.8	-13	-3.9	.
Cc1nc(N2CCCCC2)c2c(C)c(C(=O)Nc3ccccc3C(F)(F)F)sc2n1	0.71	.	.	.	-5	-5.7	4	0.9	i
COc1ccc(C(=O)NCCCCCC(=O)N/N=C/c2ccco2)cc1OC	.	.	.	.	3	.	-2	2.2	.
Cc1nn(-c2ccccc2)c(C)c1/C=N/N1CCN(c2ccccc2)CC1	.	12	7	-7.7	56	.	5	3.0	i
CCC(=O)Nc1cccc(NC(=O)CSc2nnc(-c3ccc(NS(C)(=O)=O)cc3)n2CC)c1	0.63	.	.	.	-19	1.4	0	0.8	.
CCOc1ccc(N2C(=O)/C(=C/c3cc(OC)c(OC)c(OC)c3)N(CC(=O)OC)C2=S)cc1	0.76	.	.	.	7	-1.9	6	0.1	.
CCCCOc1ccc(S(=O)(=O)N2CCCCC2)cc1	0.66	-5	-8	1.1	5	-2.0	-4	0.2	i
CC/C(C)=C1\SC(N2CCN(C(C)=O)CC2)=NC1=O	.	.	.	.	-1	0.2	0	0.3	.
CC(C)c1ccc(NC(=O)c2ccc3c(c2)CCN3S(C)(=O)=O)cc1	0.68	4	10	0.3	-10	4.2	13	5.3	i
Cc1ccccc1COC(=O)CCCC1=NS(=O)(=O)c2ccccc2N1	0.67	1	-9	-1.0	-2	0.9	-3	1.6	i
CCCOc1ccc(C(CC(=O)O)NC(=O)C(c2ccccc2)c2ccccc2)cc1 (stereo not drawn)	0.7	-11	1	1.3	43	2.0	3	-4.6	i
Cc1ccc(S(=O)(=O)NN2C(=O)c3ccccc3NC2(C)C)cc1	0.72	0	-10	6.0	.	i	0	-2.8	i
COCC(=O)Nc1nnc(C2CCCCC2)s1	0.71	.	.	.	.	4.1	8	2.3	.
CC(C)Oc1ccc(C(=O)Nc2ccc3c(c2)n(C)c(=O)n3C)cc1	0.62	1	11	-3.1	4	4.8	-3	2.6	i
Cc1ccccc1NC(=O)CSc1nc2c(c(-c3ccco3)c1C#N)CCCC2	0.72	8	7	1.2	-19	-4.1	22	-0.3	i
The list continues:
SMILES	E coli growth	Ecoli rRNA inh	Ecoli rRNA inh OD600	Ecoli rRNA inh RFP	ALR H2O2 inh	UCH37 inh	Beta2AR agonist	HNF4A DNA FP	FGF22 binding
O=C(NCc1ccco1)C1CN(S(=O)(=O)c2ccccc2)CCN1S(=O)(=O)c1ccccc1 (stereo not drawn)	0.71	.	.	.	-2	2.5	-5	1.9	.
C[C@H](CO)N1C[C@H](C)[C@@H](CN(C)S(=O)(=O)c2cccs2)Oc2ccc(NS(=O)(=O)c3cn(C)cn3)cc2C1=O	0.79	-1&7	-2&4	0.1&-1.3	4	-0.7	2	0.7	i
Cc1ccc(-c2cc(C(=O)N3CCCc4ccccc43)no2)cc1	0.67	-33	-51	-7.9	-9	1.3	-3	4.5	i
COC(=O)c1sc(Nc2ccccc2)nc1C	0.65	0	-2	0.6	-2	-1.1	-3	2.4	i
Cc1csc2nc(CSc3ccc(Cl)cc3)cn12	0.66	.	.	.	92*	2.5	-15	0.4	.
